# TRPML1 ag: qHTS for Agonists of the Human Mucolipin Transient Receptor Potential 1 (TRPML1) | Mucolipin-1 (Homo sapiens), Q9GZU1 | TRPML1-expressing cells, Ca2+ dye fluorescence, FDSS; host cell line not named in the record; reference of the full effect not given here | activation, % (concentration not given with the values) | 410,000 tested, 0.12% active | AID 624414, 2012; in the data active = activation above about 50%; inconclusive = about 30% to 50%; inactive = below about 30%; note: 0% is about no effect; the text of the record puts the active cut at 80%
#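 TRPML1-DL cells, Tet-induced overnight (~16 h, 37 degrees C), loaded 45-90 min at room temperature with Ca8 no-wash calcium dye plus quencher. FDSS fluorescence: 10 s baseline, compound pin-transfer, 110 s agonist read, then EC80 54-4 (4uM final) and 110 s antagonist read.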
# TRPML1 inh: qHTS for Inhibitors of the Human Mucolipin Transient Receptor Potential 1 (TRPML1); Mucolipin-1 (Homo sapiens), Q9GZU1; TRPML1-inducible cells, Ca2+ dye fluorescence, FDSS; active compounds read low; inhibition of EC80 agonist-evoked calcium signal; activity change, negative = inhibition, % (no concentration beside the values); 390,000 tested, 0.02% active; in the data active means activity change below about -50%; inconclusive means about -30% to -50%; inactive means above about -30%;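 note: stimulus is agonist 54-4 at its EC80 concentration; % is set by controls: 0 for no effect and ±100 for the full control effect; compound concentration not given in the record; the text of the record puts the active cut at -80%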
#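 TRPML1-DL cells, Tet-induced overnight (~16 h, 37 °C) at 1,500 cells/well, were loaded with Ca8 no-wash dye plus quencher for 45-90 min at room temperature. Compounds were pinned during FDSS kinetic reading; agonist 54-4 at EC80 (4 uM final) then added.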
# ClpP mod: qHTS Assay for Activators of ClpP; ATP-dependent Clp protease proteolytic subunit (Bacillus subtilis (strain 168)), P80244; purified B. subtilis ClpP, FRET peptide cleavage, 20 min; Potency, µM (series often up to 57.5 µM), for inactives: at the highest dose activity change, negative = active; 340,000 tested, 1.9% active; AID 651965, 2013; active = well fitted falling curve with a large enough effect; inconclusive = small, poorly fitted or top-dose-only effect; inactive = no such curve, though single readings can be large or run the other way; note: potency is the fitted concentration of half-maximal effect; the source files actives as falling curves though it sought activators and does not explain the sign; nearly all actives have a fitted effect of over 65% in size; many hits overshoot -100%
# Target sequence (P80244 whole entry, looked up): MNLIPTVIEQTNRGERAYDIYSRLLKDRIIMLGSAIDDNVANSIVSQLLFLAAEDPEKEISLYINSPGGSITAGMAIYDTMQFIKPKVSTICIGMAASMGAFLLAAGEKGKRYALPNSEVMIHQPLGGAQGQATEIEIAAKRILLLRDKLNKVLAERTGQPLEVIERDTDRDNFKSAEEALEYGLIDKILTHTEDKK
#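 ClpP 10 microg/mL final, pH 8 Tris/KCl buffer with BSA, glycerol, Tween-20; compound pinned in; FRET-FV substrate; RT 20 min; Ex320/Em430; ΔFRET vs ADEP 5.8 microM, DMSO, no enzyme.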
# Sfp PPTase inh: qHTS Assay for Inhibitors of Bacillus subtilis Sfp phosphopantetheinyl transferase (PPTase); 4'-phosphopantetheinyl transferase ffp (Bacillus subtilis), Q9F4F7; 310,000 tested, 3.5% active; AID 1490, 2009; Biochemical Sfp PPTase activity, qHTS; Potency, µM, for inactives: max response, negative = inhibition, usual class: inhibitors; active = well fitted inhibition curve with a large enough effect; inconclusive = small, poorly fitted or top-dose-only effect, or another doubt; inactive = no such curve, though single readings can be large or run the other way;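 note: the enzyme is Sfp with the accession as filed and its product quenches rhodamine fluorescence; potency is the fitted concentration of half-maximal effect; 0% = enzyme reaction without inhibitor and -100% = no enzyme wells; top concentration of the series not given in the record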
#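 With Hepes-Na pH 7.6 buffer containing 10 mM MgCl2, Sfp (15 nM) modified BHQ-2-YbbR (12.5 uM) using rhodamine-CoA (5 uM). Two reads 30 minutes apart at 525/598 nm yielded each well's rate.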
# TRPV1 PAM: HTS Assay for Compounds that Act as Potentiators of the Vanilloid Receptor 1. TRPV1-expressing cells, Fluo-8 calcium influx, capsaicin EC20 potentiation; host cell line not named in the record; control for the full effect not named in the record. potentiation, % at 8.33 µM. 320,000 tested, 0.02% active. AID 540277, 2011; active means potentiation above 80%; inconclusive means 30% to 80%; inactive means below 30%; note: 0% is about no effect
# Target sequence (Q8NER1 whole entry, looked up): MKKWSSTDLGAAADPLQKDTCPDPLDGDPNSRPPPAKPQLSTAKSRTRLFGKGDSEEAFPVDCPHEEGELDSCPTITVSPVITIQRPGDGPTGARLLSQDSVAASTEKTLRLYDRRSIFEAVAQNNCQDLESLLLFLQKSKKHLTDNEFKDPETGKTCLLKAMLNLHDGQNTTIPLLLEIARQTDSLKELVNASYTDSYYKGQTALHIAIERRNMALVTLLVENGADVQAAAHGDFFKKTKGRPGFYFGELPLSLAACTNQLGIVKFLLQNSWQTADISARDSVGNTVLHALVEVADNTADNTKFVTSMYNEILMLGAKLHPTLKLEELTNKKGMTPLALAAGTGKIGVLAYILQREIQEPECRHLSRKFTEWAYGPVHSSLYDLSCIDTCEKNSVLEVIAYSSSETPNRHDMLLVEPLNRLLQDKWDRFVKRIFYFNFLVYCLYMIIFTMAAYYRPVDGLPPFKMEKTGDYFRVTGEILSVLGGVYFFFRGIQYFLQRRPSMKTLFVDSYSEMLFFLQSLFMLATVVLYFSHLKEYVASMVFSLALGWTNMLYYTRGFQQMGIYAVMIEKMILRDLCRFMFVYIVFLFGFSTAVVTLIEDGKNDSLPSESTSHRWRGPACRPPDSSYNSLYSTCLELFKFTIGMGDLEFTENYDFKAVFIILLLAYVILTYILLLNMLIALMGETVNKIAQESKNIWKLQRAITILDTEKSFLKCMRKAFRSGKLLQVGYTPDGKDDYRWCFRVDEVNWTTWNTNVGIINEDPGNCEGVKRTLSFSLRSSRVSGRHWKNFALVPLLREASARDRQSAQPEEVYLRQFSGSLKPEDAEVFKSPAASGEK
#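 Fluo-8 calcium influx in TRPV1-expressing cells, kinetic read (ex 480/em 520 nm). Compound added and read 3 min for agonist activity, followed by capsaicin at EC20 final and 2 min further read for enhancement.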
# PINK1 expr mod: A Quantitative High throughput Screen to Identify Chemical Modulators of PINK1 Expression; PINK1 immunofluorescence, high-content cytometry, 24 h; Potency, µM (doses to about 76.6 µM), without a hit: top-dose activation (PINK1 increase), most hits filed as activators; 410,000 tested, 0.2% active; AID 624263, 2012; active = well fitted activation curve with a large enough effect; inconclusive = small, poorly fitted or top-dose-only effect; inactive = flat fitted curve, though single readings scatter; cell line not stated here;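 note: potency is the fitted concentration of half-maximal effect; % of control where 0% means no effect; nearly all actives have a fitted effect of over 65% in size; a mitochondrial uncoupler was the plate control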
#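 Decision-based qHTS: stable cells, 24 h exposure to five compound concentrations, CCCP as control. Fixed cells stained for PINK1 plus nuclear, mitochondrial and cell markers, cytometer read.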
# Menin-MLL FL inh: qHTS Assay for Inhibitors Targeting the Menin-MLL Interaction in MLL Related Leukemias: Competition With Fluorescein Labeled MLL-derived Peptide; Fluorescence polarization, fluorescein-MLL peptide displacement from menin; FP activity change, % at 61.4 µM; 290,000 tested, under 10 active; AID 1766, 2009; inconclusive = falling polarisation curve, or a change in total fluorescence; inactive = total fluorescence flat and polarisation flat or rising; no compound was filed as active; the % refers to the polarisation; negative = inhibition;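 note: % of control where 0% means no effect; inhibitors lower the polarisation; unlabelled MLL peptide was the positive control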
# * hit, by the source's call; ? = inconclusive; · = no result given; & = joins results of further samples; [ ] = dose if it differs, or a comment.
SMILES,TRPML1 ag,TRPML1 inh,ClpP mod,Sfp PPTase inh,TRPV1 PAM,PINK1 expr mod,Menin-MLL FL inh
O=C(NCCc1ccc(F)cc1)c1ccc(NS(=O)(=O)c2ccc3[nH]c(=O)[nH]c3c2)cc1,1.3,8.1,·,·,-5.1,-1.5%,·
Cc1ccc(NC(=S)NNC(=O)c2ccc(N3CCOCC3)c([N+](=O)[O-])c2)cc1C,2.2,-4.6,1.7%,5.0%,6.1,8.3%,-2.5
COC(=O)c1ccc(-c2ccc(/C=N/NC(=O)Cc3nnc(N)s3)o2)cc1,2.3,17.2,·,56.2µM*,-1.7,13.0%,10.6
c1ccc(CNc2ncnc3c2cnn3Cc2ccccc2)cc1,27.6,-9.7,-0.5%,9.0%,-30.0,5.4%[38.3 µM],-2.5
CC(C)CN(C(=O)COC(=O)/C=C/c1cccs1)c1c(N)n(Cc2ccccc2)c(=O)[nH]c1=O,2.1,10.6,0.1%,·,-6.1,3.4%,·
CC1=Nc2ccccc2/C1=C\c1nc(-c2ccc(C(F)(F)F)cc2)oc1O,14.2,9.5,0.1%,29.2%,-4.1,?,?
Fc1ccc(CNc2ncccn2)cc1,-0.6,11.9,·,22.7%,22.2,2.4%,3.3
CCOc1ccc(C2c3cc(OC)c(OC)cc3CC(=O)N2c2ccccc2)cc1 (configuration not stated),0.0,-50.7*,-3.0%,3.9%,7.7,2.7%[38.3 µM],1.5
Nc1nc2ccc(O)cc2s1,0.3,5.2,-2.8%,5.9%,-9.4,-1.0%,7.8
Cc1cc(C)nc(SCC(=O)c2c(N)n(C)c(=O)n(C)c2=O)n1,-0.2,-2.4,-4.3%,6.1%,5.5,7.9%[38.3 µM],1.5
COc1ccc(/C(O)=C/C(=O)C(=O)Nc2c(C)n(C)n(-c3ccccc3)c2=O)cc1,-0.2,13.2,0.5%,3.4%,-3.8,4.4%[38.3 µM],0.3
Cc1cccc(N2CCN(S(=O)(=O)c3ccc4c(c3)CC(=O)N4C)CC2)c1C,0.8&-0.7,-7.5&-0.4,-1.1%&-1.4%,-4.4%,1.3,1.3%&1.1%,2.8
COc1cc(OC)cc(-c2c(C#Cc3ccsc3)c3cc(Br)ccc3n2C)c1,-0.3,25.1,3.9%,·,-4.4,-0.6%,·
CCCCNC(=O)C1c2ccccc2OCC(=O)N1CCc1ccc(OC)c(OC)c1 (configuration not stated),-0.8,·,-3.7%,·,·,0.9%,·
CC12CCC(C(=O)N3CCOCC3)([C@H](Br)C1=O)C2(C)C (some centres not stated),0.5,2.6,·,7.7%,-2.2,-0.5%,1.2
COc1ccc(Nc2nc3ccccc3c3nnc(C)n23)cc1Cl,2.6,42.9,-27.0%,·,·,-1.8%,·
O=C(c1cc(Br)ccc1Cl)N1CCN(c2ccc(N3CCOCC3)nn2)CC1,0.0,4.9,?,·,5.5,-5.5%,·
CCCCN(CCCNC(=O)c1cc(Nc2ccccc2OC)nc2ccccc12)c1ccccc1,0.8,1.3,17.8µM*,·,·,2.9%,·
CCCCS(=O)(=O)Nc1ccc2cn[nH]c2c1,0.0,-1.3,·,16.7%,-20.2,2.2%,2.0
O=C(O)C1C2C=CC(C2)C1C(=O)Nc1cccc(C(=O)N2CCCCC2)c1 (configuration not stated),0.7,-14.5,-1.4%,-8.9%,-1.1,1.0%[38.3 µM],1.4
COc1ccccc1CNCc1ccc(OC)c(OC)c1OC,-0.6,-10.2,1.2%,?,28.4,·,0.5
Cc1ccc(C)c2nc3sc(C(=O)O)cc3cc12,-0.1,10.5,·,10.6%,-3.7,-1.4%,-3.1
O=CN1CCN(C(=O)c2ccc([N+](=O)[O-])cc2)CC1,-0.5,8.8,-2.6%,17.4%,-2.5,3.3%,-0.8
CCOc1cc(S(=O)(=O)NCCCn2ccnc2)ccc1Cl,0.0,-2.4,1.0%,16.0%,-1.9,1.2%,3.1

# Taken from above:
# CC12CCC(C(=O)N3CCOCC3)([C@H](Br)C1=O)C2(C)C (some centres not stated) @ TRPML1 inh: 2.6
# CCOc1cc(S(=O)(=O)NCCCn2ccnc2)ccc1Cl @ TRPV1 PAM: -1.9

# Next compounds:
SMILES,TRPML1 ag,TRPML1 inh,ClpP mod,Sfp PPTase inh,TRPV1 PAM,PINK1 expr mod,Menin-MLL FL inh
O=C(NNC(=O)c1cccs1)c1ccc(Cl)c([N+](=O)[O-])c1,0.8,-2.2,0.2%,19.5%,1.4,-0.3%,0.8
CCSc1nc2c(c(=O)[nH]1)C(c1ccc(C)cc1)C1=C(CCCC1=O)N2 (configuration not stated),1.8,13.7,·,20.9%,-2.2,6.2%,-5.2
COc1ccc(F)cc1S(=O)(=O)Nc1ccc2c(c1)CCCN2C(=O)c1cccs1,-0.5,-1.3,0.1%,·,·,1.0%,·
COc1cccc2cc(C(=O)N3CCCCCCC3)c(=O)oc12,0.0,-1.3,·,10.0%,1.1,0.3%,2.2
CN1CCSc2ccc(C(=O)Nc3cc(F)ccc3F)cc21,1.9,58.9,3.8%,?,15.6,-0.6%,-3.2
Oc1ccc(/C=N/N2CCN(C3c4ccccc4-c4ccccc43)CC2)c(O)c1,-0.3,12.3,·,24.3%,-6.4,8.1%,-1.6
COc1cccc(CNC(=O)CCC2CCCN(C(=O)c3cccc4c(C)c(C)[nH]c34)C2)c1 (configuration not stated),-0.4,-13.0,·,-10.0%,6.2,3.3%,-3.1
N#C/C(=C\c1cccnc1)c1ccc([N+](=O)[O-])cc1,0.6,10.0,-0.3%,6.6%,-30.2,-2.6%,3.6
CCCCCCCNC(=O)C1(CC2CC(c3cccc(Br)c3)=NO2)CCN(C(=O)C2CCCC2)CC1 (configuration not stated),-0.4,46.7,1.9%,·,26.0,-0.7%,·
COc1ccc(OCC(=O)N(C)CC2COc3ccccc3O2)cc1 (configuration not stated),0.9,46.2,-2.8%,·,·,-0.6%,·
O=C(NCC(c1cccnc1)N1CCOCC1)C(=O)Nc1cccc(Cl)c1 (configuration not stated),0.6,-5.4,-4.2%,·,·,-1.1%,·
O=C(CSc1cccc[n+]1[O-])Nc1ccc(C(F)(F)F)cc1[N+](=O)[O-],-0.6,-13.9,-0.1%,1.4%,0.8,0.1%,0.6
CN(c1ccc(OCCOc2ccccc2Cl)cc1)S(=O)(=O)c1ccccc1,5.0,67.7,-2.4%,·,·,-0.4%,·
O=C(C[C@H]1C/C=C\CC[C@@H](Cc2ccc(F)cc2)C(=O)O[C@@H](c2ccccc2)CNC1=O)N[C@@H](CO)Cc1ccccc1,-0.6,21.7,0.9%,·,·,-0.5%,·
CCc1nc2ccc(C(=O)NCc3cccs3)cn2c1N(CC)CCN(C)C,-0.1,·,-5.0%,·,·,0.0%,·
CN(Cc1ccccc1)S(=O)(=O)c1ccc(-c2cnc(C3CC3)o2)cc1,-0.6,47.7,4.3%,·,·,2.5%,·
Clc1ccccc1N1CCN(c2ncnc3c2c(-c2ccccc2)cn3-c2ccccc2)CC1,59.5*,-3.2,?,·,·,0.4%,·
COC(=O)c1ccccc1NC(=O)CCNC(=O)Cn1cnc2ccccc2c1=O,-0.6,10.2,?,24.5%,2.1,1.2%,1.8
CC(=O)N1c2ccc(S(=O)(=O)NCCC(=O)Nc3ccc(OC(F)(F)F)cc3)cc2CC1C (configuration not stated),-0.1,-1.7,-0.3%,20.0%,-2.5,-2.0%,-5.7
CN(C)/C=N/c1nc2c(ncn2C2CC(O)C(CO)O2)c(=O)[nH]1 (configuration not stated),-0.5,·,-0.9%,·,·,0.1%,·
COc1cc(/C=C(\C#N)c2nc3ccccc3[nH]2)cc(OC)c1O,?,4.4,·,?,-0.5,5.9%,?
CC(=O)c1sc2nsc(SCCN3CCCCC3)c2c1N,-0.6,-6.1,·,-5.5%,17.1,0.0%,?
NNC(=O)c1ccc(COc2cccc3cccnc23)cc1,0.4,5.0,·,5.0%,1.7,2.0%,0.7
Cc1ccc2nc(SCC(=O)Nc3ccc(F)c([N+](=O)[O-])c3)[nH]c2c1,1.1,12.6,0.3%,-5.7%,-26.5,?,4.6
CSCc1ccc(C(=O)OCC(=O)NC2CCCC2)o1,-0.6,-4.0,-1.9%,·,·,2.6%,·
COc1cc(CCC(=O)OCC(=O)Nc2cc(S(=O)(=O)N3CCOCC3)ccc2Cl)cc(OC)c1OC,0.4,6.4,-2.8%,·,·,-0.5%,·
CN(Cc1ccco1)c1ccnc(-c2ccccc2C(F)(F)F)n1,·,·,·,-6.9%,·,0.4%,1.1
Cc1ccc(CN(c2ccc(C(=O)Nc3cccnc3)cc2)S(C)(=O)=O)cc1,1.8,-9.5,0.9%,10.4%,21.3,1.5%[38.3 µM],3.0
Cc1ccc(CSCCNC(=O)c2ccc(N(C)S(=O)(=O)c3ccccc3)cc2)cc1,4.7,29.1,-1.3%,7.0%,-10.3,-2.3%,3.0
O=C(O)c1cccc(Cn2cccn2)c1,-0.1,-3.5,-0.5%,17.6%,-0.9,0.3%,0.2
CC(NC(=O)c1cn(C(C)c2ccccc2F)nn1)c1ccncc1 (configuration not stated),0.3,-2.7,-2.1%,19.0%,-2.6,-1.9%,-1.0
Cc1nc(-n2nc(C)c(CCC(C)C)c2C)sc1C(=O)Nc1ccc(Br)cc1,0.7,16.7,-5.6%,·,·,-2.0%,·
C/C(=N/OC(=O)C1CC12CCC2)c1ccc(Br)cc1 (configuration not stated),1.3,-5.7,·,-7.2%,-1.7,-0.7%,0.4
COc1ccc2cc(C#N)c(Cl)nc2c1,0.2,2.9,·,9.5%,5.2,2.2%,-1.5
COC(=O)c1cc2c(C)nn(-c3ccccc3)c2s1,1.9,44.5,31.6µM*,9.5%,-9.7,6.9%,0.7

# High-throughput results deposited in PubChem BioAssay by National Center for Advancing Translational Sciences (NCATS).

# Hits appear at their usual frequency; 4.4% or so of the library scored in one or more.
